# Compound activity: PubChem BioAssay, ICCB-Longwood Screening Facility, Harvard Medical School
# MgrA DNA FP = S. aureus MgrA-DNA binding modulation; fluorescence polarization; inhibition, %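 (about 10 µg/mL by stock and volumes)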; 84,000 compounds, 0.13% hits; AID 602314;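 active = above 50% in either of two replicates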;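 also: 0% = protein plus DNA without compound and 100% = DNA alone without protein; higher means less MgrA bound to DNA so lower polarization; one replicate is shown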
# Sa helicase inh = blocks Staphylococcus aureus DNA helicase; purified S. aureus helicase, fluorescence unwinding assay; about half of the hits fall short of the stated cut; AID 485395; 120,000 compounds, 0.05% hits; inhibition, %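 (tested at about 80 µM)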;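 active = both duplicates at 50% or more, or one of them with a favoured structure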;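 also: 0% = mean of negative control wells and 100% = mean of positive control wells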
# An asterisk follows results filed as active; nt = no result given. The list is partial; the hit share may differ from the screen's.
MgrA DNA FP	Sa helicase inh	SMILES
-0.6	-5	CC1CCCCN1C(=O)CSc1nnc(CNc2ccc(Cl)cc2)o1 (stereo unspecified)
nt	-12	CCOc1ccc(C(=O)Nc2cccc(-c3ccc4nncn4n3)c2)cc1
7.5	-2	CC(C)(C)C1(C)OC(=O)C(=Cc2ccc3c(c2)OCO3)C(=O)O1 (stereo unspecified)
-8.8	nt	Cc1c(C#N)c(Sc2ccccc2N)nc2ccccc12
-0.7	nt	CN(C)/C=N/c1nnc(C(C)(C)C)s1
-2.1	nt	O=C(O)/C=C/C(=O)Nc1ccnn1-c1ccccc1
nt	-1	O=c1oc2c(CN3CCOCC3)c(O)ccc2c2c1CCC2
4.0	10	CC(C(=O)N1CCCC1)N1c2cccc3cccc(c23)S1(=O)=O (stereo unspecified)
4.8	nt	O=c1[nH]c(=O)n(-c2ccc(Br)cc2)c(O)c1/C=C1/C=Nc2ccccc21
-0.1	-2	CCN(CC)C(=O)c1sc2ncn(CC(=O)Nc3cccc(C(F)(F)F)c3)c(=O)c2c1C

# Sorted by number of heavy atoms (ascending): part of the list above
MgrA DNA FP	Sa helicase inh	SMILES
-0.7	nt	CN(C)/C=N/c1nnc(C(C)(C)C)s1
-8.8	nt	Cc1c(C#N)c(Sc2ccccc2N)nc2ccccc12
nt	-1	O=c1oc2c(CN3CCOCC3)c(O)ccc2c2c1CCC2
-0.6	-5	CC1CCCCN1C(=O)CSc1nnc(CNc2ccc(Cl)cc2)o1 (stereo unspecified)
nt	-12	CCOc1ccc(C(=O)Nc2cccc(-c3ccc4nncn4n3)c2)cc1
-0.1	-2	CCN(CC)C(=O)c1sc2ncn(CC(=O)Nc3cccc(C(F)(F)F)c3)c(=O)c2c1C

# (more compounds)
MgrA DNA FP	Sa helicase inh	SMILES
4.6	nt	OCCCN=Cc1ccc(Cl)cc1Cl
nt	-19	CC(=O)NC(=O)/C(C#N)=C/N1CCN(Cc2ccccc2)CC1
-1.6	8	COC1OC2COC(c3ccccc3)OC2CC1O (stereo unspecified)
-2.1	11	CS(=O)(=O)N1CCN(C(=S)NCc2ccc(F)cc2)CC1
-1.1	nt	CCc1cccc(CC)c1NC(=O)C(Sc1ccccn1)c1ccccc1 (stereo unspecified)
2.0	4	CSc1ccc(S(=O)(=O)NC2CCCC2)cc1
-1.6	19	O=C(NCCN1CCCCCC1)c1cnn2c(C(F)(F)F)cc(-c3ccccc3)nc12
nt	17	Cc1ccc2nc(COC(=O)c3ccc(-n4cnnn4)cc3)cc(=O)n2c1
4.4	2	N/C(=N\O)c1cccc(/C(N)=N/O)n1
0.8	nt	O=C(Nc1ccc(Cl)cc1)c1ccc2ncsc2c1
nt	15	Cc1cc(C)n(C(=O)c2ccc(NC(=O)C3CCCCC3)cc2)n1
-1.9	-12	CC(C)CC(NC(N)=O)C(=O)O (stereo unspecified)
0.3	nt	COC(=O)CSCCC(N)=S
-0.2	3	O=c1/c(=C/c2ccccc2)sc2nc(-c3ccccc3)nn12
0.7	12	Cc1ccccc1NC(=O)CC1SC(=O)N(c2ccccc2)C1=O (stereo unspecified)
2.8	12	Cn1c(C(=O)N(Cc2ccccc2)C(C)(C)C)cc2sccc21
nt	2	COc1ccc2oc(=O)c(C(=O)c3ccccc3)cc2c1
nt	-27	OC(CN1CCCC1)Cn1ccc2ccccc21 (stereo unspecified)
3.2	8	CCn1c(NCCSc2nc3ccccc3n2C)nc2ccccc21
nt	-27	COC(=O)c1cc(S(=O)(=O)N(C)c2cccc(C)c2)cn1C
3.0	nt	Cc1cc(C)n(-c2nc3nonc3nc2Nc2cccc(C(F)(F)F)c2)n1
0.7	10	O=C(CSc1nc2ccccc2o1)c1ccccc1
9.0	10	NCC1CCN(Cc2ccccc2)C1 (stereo unspecified)
0.2	-3	CCc1ccc(NCc2cccc3c2CN(CC)C3)cc1
0.7	19	CN1C(=O)/C(=C/c2ccc(O)cc2)SC1=Nc1ccc(Cl)cc1
nt	-9	O=S(=O)(Nc1nc2ccc(Cl)cc2s1)c1cccs1
-0.1	10	Cc1ccc(CNC(=O)CCCc2nnc3n4nc(C)nc4c4ccccc4n23)cc1
1.1	-4	CC(=O)Nc1ccc2sc(NC(=O)CN3CCOCC3)nc2c1
nt	-10	COc1ccc(C)cc1NCC(=O)NC1CCCCC1
1.5	11	Cn1c(C(C#N)C(=O)C2CCCCC2)nc2ccccc21 (stereo unspecified)
0.2	-4	O=C(CCC1CCCC1)Nc1noc2ccccc12
-0.3	nt	Cc1ccc(Sc2nc(-c3cccs3)ns2)cc1
nt	-11	Nc1cccc2c1C(=O)N(CC(=O)NC1CCCc3ccccc31)C2=O (stereo unspecified)
2.5	nt	O=C(CSc1ccc(F)cc1)NC1Cc2ccccc2C1
nt	-10	Cc1nc(-c2ccccc2)sc1-c1nnc(-c2ccc(C(F)(F)F)cc2)o1
nt	-1	COc1ccc(NC(C)=O)cc1NC(=O)c1cncn1-c1ccc(F)cc1
nt	26	COC(=O)C1CCN(C(=O)COc2ncnc3c(Cl)cc(Cl)cc23)CC1
nt	-3	O=S(=O)(c1ccc(N2CN(S(=O)(=O)c3ccc(Cl)cc3)c3nc4ccccc4nc32)cc1)N1CCOCC1
nt	-5	Cc1nc2sc3c(c2c(-c2cccs2)c1C(N)=O)CCCC3
nt	19	COc1ccc(OCC(O)CNC(=O)Nc2cc(C)cc(C)c2)cc1 (stereo unspecified)
nt	13	O=S(=O)(Nc1cccnc1)c1ccc2c(c1)OCCO2
4.3	6	CCOC(=O)c1[nH]c(=O)[nH]c1CSc1ccccn1
nt	-14	CC(C)Cn1[nH]c(CC(=O)O)cc1=O
nt	-2	CCc1cccc(NC(=O)Cn2ncn3c(cc4ccccc43)c2=O)c1
nt	-7	CN(C(=O)CN1CCOCC1)C1(c2ccccc2Cl)CCCCC1=O (stereo unspecified)
-2.6	nt	Cc1cc(C(=O)Nc2ccccc2)c(C)n1Cc1cccs1
-1.1	nt	CSc1nnc(-c2ccc(C(C)(C)C)cc2)n1C
2.0	7	C=CCn1c(N)cc(=O)nc1SCC(=O)OC1CC2CCC1(C)C2(C)C (stereo unspecified)
0.6	17	COc1ccc(C2SCC(C(=O)NC(C)C)N2C(=O)Nc2ccc(C)c(C)c2)cc1 (stereo unspecified)
nt	15	N#Cc1ccc(Cl)cc1NC(=O)COC(=O)CSc1ncnc2sccc12

# (listing goes on)
MgrA DNA FP	Sa helicase inh	SMILES
nt	11	CCOC(=O)c1c(-c2ccc(C)cc2)csc1NC(=O)c1ccco1
-0.8	nt	CC(Oc1ccccc1)c1ccn[nH]1 (stereo unspecified)
nt	-10	Clc1ccc(-n2ccnc2Sc2ncnc3sc4c(c23)CCCC4)cc1
0.4	nt	O=C1S/C(=C\c2ccc(F)cc2)C(=O)N1c1ccccc1
-0.5	nt	CCOC(=O)CC(=O)Nc1ccn[nH]1
nt	9	CC(C)N(Cc1nc2ccccc2[nH]1)C(C)C
-1.1	nt	CC1c2ccsc2CCN1C(=O)c1cccs1 (stereo unspecified)
3.4	-6	O=C(/C=C/c1ccccc1)Nc1nc(-c2ccccc2)cs1
nt	-11	CCOC(=O)c1[nH]c(CN2CCN(c3ccc(OC)cc3)CC2)c(C(=O)OCC)c1C
-0.4	nt	N=c1scc(-c2ccccc2)n1-c1cc(C(F)(F)F)ccc1N1CCOCC1
2.1	5	CCOC(=O)C1C(=O)Oc2ccc3ccccc3c2C1C1CCOC1=O (stereo unspecified)
0.4	nt	N#Cc1c(-c2cccs2)cc(-c2ccccc2)[nH]c1=O
14	10	CC(=O)N1CCc2cc(C(O)CN3CCN(C4CCCCC4)CC3)ccc21 (stereo unspecified)
-1.9	nt	Clc1ccc(-c2nccc(-c3cc(-c4ccccc4)no3)n2)cc1
nt	-24	OCCNc1nc2ccccc2[nH]1
2.9	13	NNc1nc2ccccc2c(=O)n1Cc1ccccc1
-1.4	nt	COC(=O)c1cccn1-c1ccc(Br)cc1
nt	-3	Cc1c(NS(=O)(=O)c2ccc(Cl)c(C(=O)OC(C)C(=O)N3CCOCC3)c2)c(=O)n(-c2ccccc2)n1C (stereo unspecified)
-3.4	2	O=C(CSc1ncnc2c1nnn2Cc1ccccc1)NCc1ccccc1
6.3	15	Cc1c(C)n(Cc2ccccc2)c2ccc(C(=O)Nc3ncn[nH]3)cc12
nt	6	Cc1ccc(NC(=O)CC2Oc3ccc(C)cc3NC2=O)cc1 (stereo unspecified)
-1.1	8	O=C(O)c1cc(-c2ccccc2)c(C(=O)O)cn1
nt	18	COc1ccccc1C1/C(=C(\O)c2ccc(Cl)cc2)C(=O)C(=O)N1CCC(=O)O (stereo unspecified)
1.5	-14	Cc1c(Cc2ccccc2)sc(/N=C/c2ccc3ccccc3c2)c1C(N)=O
nt	4	Cc1ccc(C2=NN(C(=O)CN3CCC(C)CC3)C(c3ccco3)C2)cc1 (stereo unspecified)
nt	4	C/C(N)=C(/C#N)C(=O)CSc1nc(-c2ccc(C)c(C)c2)cn1-c1ccccc1
-6.9	-1	C=CCn1cnc2scc(-c3ccc(OC)cc3)c2c1=O
nt	5	c1ccc2c(c1)nnn2-c1ncnc2sccc12
-3.0	nt	CN1C(=O)OC(c2ccccc2)C1=O (stereo unspecified)
5.8	22	N#CC(C(=O)CN1CCN(c2ccccc2)CC1)c1ccccc1 (stereo unspecified)
-0.6	nt	COC(=O)CN(c1nc(C)cc(OC)n1)S(=O)(=O)c1ccccc1
-1.9	3	N#Cc1ccc(-c2cc(C(F)(F)F)ccc2Cl)o1
-2.6	8	Cc1noc(/C=C/N(C)C)c1S(=O)(=O)N1CCCC(C(=O)NC2CCCCC2)C1 (stereo unspecified)
nt	12	COCCn1cnc2c1c(=O)n(CC(=O)NC(=O)NC1CCCC1)c(=O)n2Cc1ccccc1
6.6	-5	S=C(Nc1ccccc1)Nn1cnnc1
-3.0	10	CC(=O)Nc1cc(C(=O)N2CC=C(c3ccccc3)CC2)ccc1Sc1ccc(Cl)cc1
nt	-18	Cc1ccnc(N(C(=O)c2nn(C)c3c2COc2ccccc2-3)C(=O)c2nn(C)c3c2COc2ccccc2-3)c1
nt	22	Fc1ccccc1-c1noc(NCC2CCCO2)n1 (stereo unspecified)
nt	4	O=C(OCC(=O)N1CCCC1)c1ccc(S(=O)(=O)Nc2ccccc2)cc1
7.1	nt	COc1ccc(S(=O)(=O)Nc2nc(O)c(C3=c4cc(Cl)ccc4=NC3=O)s2)cc1
-1.9	nt	Cc1cc(N=C(N)N=C(N)N)no1
nt	-13	O=C(NC(Cc1c[nH]c2ccccc12)C(=O)NNC1=NCCC1)c1ccccc1 (stereo unspecified)
nt	11	O=C(Cn1cnc2c(oc3ccccc32)c1=O)N1CCCC1c1ccc2c(c1)OCCCO2 (stereo unspecified)
1.6	7	COc1ccc(NC(=O)NC(C)C2CCCO2)c(OC)c1 (stereo unspecified)
nt	-14	COc1ccccc1C(=O)NCCSc1c[nH]c2ccccc12
-2.2	4	CC1CN(C(=O)c2ccc(NC(=O)c3ncoc3-c3ccc4ccccc4c3)cc2)CC(C)O1 (stereo unspecified)
-2.0	nt	O=C(NCc1ccc(-c2ccc(F)cc2F)o1)c1ccccc1
nt	-31	Cc1nn(CC(O)CN2c3ccccc3Sc3ccccc32)c(C)c1Br (stereo unspecified)
-3.6	8	N#CCCS(=O)(=O)c1ccc(Br)cc1
-0.6	17	O=C(COC(=O)Cc1ccccc1)NC1CCCc2ccccc21 (stereo unspecified)

# As entered above:
# COc1ccc(NC(=O)NC(C)C2CCCO2)c(OC)c1 (stereo unspecified) in Sa helicase inh = 7
# Cc1cc(N=C(N)N=C(N)N)no1 in MgrA DNA FP = -1.9
# COc1ccccc1C(=O)NCCSc1c[nH]c2ccccc12 in Sa helicase inh = -14
# O=C(COC(=O)Cc1ccccc1)NC1CCCc2ccccc21 (stereo unspecified) in Sa helicase inh = 17

# Remaining list, next part.
MgrA DNA FP	Sa helicase inh	SMILES
nt	1	CCC(C(=O)N1CCN(c2cccc(Cl)c2)CC1)c1ccccc1 (stereo unspecified)
-0.5	nt	N=C(N)SCc1ccc(-c2csnn2)cc1
-1.4	9	O=C(O)CCCC(=O)Nc1ccc(Cl)cc1
-2.0	nt	O=C(CC(C(=O)c1cccnc1)c1cccs1)c1ccc(Cl)cc1 (stereo unspecified)
0.0	nt	COc1cc(C2NC(=O)N(C)C(C)=C2C(=O)OCCc2ccccc2)cc(Br)c1O (stereo unspecified)
8.4	10	COc1cc(C(=O)Sc2ccc(Cl)cc2)cc(OC)c1OC
nt	5	COc1ccc(-c2nc(=O)[nH]c(=O)[nH]2)cc1
6.5	19	O=C(CNC(=O)c1ccccc1)NCc1ccco1
-0.6	17	COc1ccc(-c2noc(CN(C(C)=O)C3CCCCC3)n2)cc1
nt	0	Cn1cnnc1SCC(=O)C(C)(C)C
nt	13	COc1nc(-c2ccc(Cl)cc2)nc2ccccc12
-1.4	1	COCC(C)NCc1ccccc1C (stereo unspecified)
1.6	14	CCCCOc1ccc(OCCNC(=O)c2ncn[nH]2)cc1
nt	-14	Cc1nn(-c2ccccc2)c(C)c1/C=C/C(=O)OCC(=O)N1CC(=O)Nc2ccccc21
nt	13	Cn1[nH]c(=O)c2ncccc2c1=O
nt	-9	Cc1ccc(/C=N/N=C2\CC3CCC2(C)C3(C)C)o1 (stereo unspecified)
nt	-6	CCN(CC)S(=O)(=O)c1ccc(N=NC2=C(O)CCCC2=O)cc1
-1.5	nt	N#Cc1ccc(C(N)CC(=O)O)cc1 (stereo unspecified)
2.0	nt	O=C1C2=C(c3ccccc3)c3cc(F)ccc3C2Sc2ccccc21 (stereo unspecified)
-0.6	nt	Cc1ccc(C)c(C(O)C(=O)O)c1 (stereo unspecified)
nt	-14	CSc1ncc(C(=O)NC2CCN(Cc3ccccc3)CC2)c(C(F)(F)F)n1
nt	-9	CC(C)c1cc(NC(=O)COC(=O)c2ccccc2Oc2ccccc2)on1

# Another view of part of the listing above:
O=C(O)c1cc(-c2ccccc2)c(C(=O)O)cn1
  MgrA DNA FP: -1.1	Sa helicase inh: 8

COc1ccccc1C1/C(=C(\O)c2ccc(Cl)cc2)C(=O)C(=O)N1CCC(=O)O (stereo unspecified)
  MgrA DNA FP: nt	Sa helicase inh: 18

Cc1c(Cc2ccccc2)sc(/N=C/c2ccc3ccccc3c2)c1C(N)=O
  MgrA DNA FP: 1.5	Sa helicase inh: -14
